Bioassay records as filed in PubChem BioAssay.
VDR inh – vitamin D3 receptor (human) inhibition; P11473; VDR-SRC2-3 peptide fluorescence polarization, 2 h; Potency, µM, for the others: max response, negative = inhibition, usual class: inhibitors; hit rate 0.93% among 400,000; AID 504847; active = well fitted inhibition curve with a large enough effect; inconclusive = small, poorly fitted or top-dose-only effect, or another doubt; inactive = no such curve, though single readings can be large or run the other way; note: series mostly up to about 120 µM
Target sequence (P11473 whole entry, looked up): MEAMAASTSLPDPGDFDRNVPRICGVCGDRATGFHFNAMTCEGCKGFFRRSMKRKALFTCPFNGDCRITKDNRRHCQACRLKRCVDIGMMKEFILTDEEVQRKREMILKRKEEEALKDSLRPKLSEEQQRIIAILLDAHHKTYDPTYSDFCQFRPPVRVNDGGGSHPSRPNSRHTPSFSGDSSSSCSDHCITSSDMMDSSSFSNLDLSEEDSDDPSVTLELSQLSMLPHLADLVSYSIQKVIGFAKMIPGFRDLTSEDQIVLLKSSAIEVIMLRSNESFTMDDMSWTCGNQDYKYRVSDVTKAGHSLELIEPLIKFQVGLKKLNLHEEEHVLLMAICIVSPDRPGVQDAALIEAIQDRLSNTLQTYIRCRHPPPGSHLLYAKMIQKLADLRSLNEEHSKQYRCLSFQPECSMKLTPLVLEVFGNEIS
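Compounds are added to VDR with labelled SRC2-3 coactivator peptide and held 2 h at room temperature. Inhibition of the VDR–peptide interaction is then read as a change in fluorescence polarization.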
Starred values were filed as active, the others as inactive; ? = inconclusive; & = joins results of further samples. % is set by controls: 0 for no effect and ±100 for the full control effect; potency is the fitted concentration of half-maximal effect.

SMILES | VDR inh
COc1cc(/C=C2\N=C(c3ccccc3)OC2=O)ccc1OC(C)=O | -9%
Cc1oc2ncn(C)c(=O)c2c1C(=O)NC(C)c1ccccc1 (stereo not drawn) | 19%
CCC(CC)NC(=O)CN(c1ccccc1OC)S(=O)(=O)c1cccs1 | -21%
CCCCNC(=O)C1CCN(c2nc3ccccc3nc2C(F)(F)F)CC1 | 7%
CC1(C)CC(NC(=O)c2cccc(S(=O)(=O)Nc3cccc(Cl)c3)c2)CC(C)(C)N1 | 1%
c1ccc(-c2ncc(CSc3nncn3-c3ccccc3)s2)cc1 | -2%
C=CCOC(=O)C1=C[C@@H](c2cn(C(C)=O)c3ccccc23)C[C@@H](OCc2ccc(CO)cc2)O1 | 0%
CCOc1cc(/C=N/n2nnnc2N)ccc1OCc1c(C)no[n+]1[O-] | 10%
c1ccc(NC(=NCc2ccco2)c2ccccc2)cc1 | 14%
O=C(c1ccc(S(=O)(=O)Cc2ccccc2Cl)c([N+](=O)[O-])c1)N1CCN(c2ccccn2)CC1 | -16%
CCCn1c(=N)n(CC(=O)O)c2ccccc21 | -5%
Cc1ccsc1C1C(C#N)=C(N)N(N(C)C)C2=C1C(=O)CC(C)(C)C2 (stereo not drawn) | -15%
c1ccc(Cc2nn3c(C4COc5ccccc5O4)nnc3s2)cc1 (stereo not drawn) | -44%
O=C(COC(=O)c1cccnc1Cl)Nc1cc(S(=O)(=O)N2CCCCC2)ccc1Cl | 6%
CC[C@H](C)[C@@H]1NC(=O)c2cc([N+](=O)[O-])cc(F)c2OCC[C@@H](C(N)=O)NC(=O)[C@H](CCCCN)NC1=O | -20%
CCOc1ccc(/C(O)=C2/C(=O)C(=O)N(CCN(C)C)C2c2ccccc2)cc1Cl (stereo not drawn) | -15%
CCOC(=O)c1c(NC(C)=O)sc2c(O)c(Br)cc(Br)c12 | -11%
Cc1c(NC(=O)c2ccccc2NS(=O)(=O)c2ccc(F)cc2)c(=O)n(-c2ccccc2)n1C | -2%
O=C(Nc1ccc(CN2CCS(=O)(=O)CC2)cc1)c1ccc(Cl)cc1 | -6%
C[C@@H]1CC=C[C@H]2[C@H]1C(=O)N(Cc1ccccc1)[C@H]2c1ccc(-c2ccc(F)cc2)cc1F | 3%
COc1cc([N+](=O)[O-])ccc1NC(=O)N1CCC2(CC1)Nc1ccccc1-n1cccc12 | -6%
CC(C)CC(=O)Nc1ccc2oc(-c3cccnc3)nc2c1 | -8%
COC(=O)c1c(NC(=O)c2ccc(Br)o2)sc(C)c1C | 13%
CCC(=O)c1ccc(OCCn2cncn2)cc1 | -27%
COc1ccc(-c2cc(C(=O)NCc3cc(OC)c(OC)c(OC)c3)[nH]n2)cc1 | 6%
COc1cc(/C=C2/C(=N)N3OC(C)=CC3=NC2=O)ccc1OC(=O)c1ccco1 | -12%
Cc1ccc(C)c(CSc2nnc([C@@H](N)C(C)C)o2)c1 | -10%
COc1cccc(C(=O)C[n+]2ccccc2/C=N/O)c1 | -1%
C=CCn1cc(C(=O)N2CCN(CC)CC2)c(=O)c2cc(S(=O)(=O)N(CC)CC)ccc21 | 8%
CC1(C)CC(C(CC(=O)N2CCCC2)Cc2ccccc2)CCO1 (stereo not drawn) | 12%
COc1ccc(C2CC(c3cccs3)=NN2C(=O)c2ccccc2)cc1OC (stereo not drawn) | -10%
Cc1ccc(CN2CCN(Cc3cc(=O)c4ccccc4[nH]3)CC2CCO)o1 (stereo not drawn) | -8%
CC(=O)Nc1ccc(NC(=O)C(C)OC(=O)c2ccc(S(=O)(=O)N3CCCCC3)cc2)cc1 (stereo not drawn) | -9%
CCOC(=O)c1c(-c2ccccc2)csc1NC(=O)c1cc(-c2cccc(Cl)c2)on1 | ?
CCOC(=O)Cc1csc(SCC(=O)Nc2cc(Cl)ccc2Oc2ccccc2)n1 | 20%
CCN1CCN(c2ccc(S(=O)(=O)N3CCCCC3)cc2NC(=O)COc2cc(C)ccc2Cl)CC1 | -14%
CC(=O)N1CCN(c2ccccc2NC(=O)c2cc(Br)ccc2Cl)CC1 | -7%
CCOc1ccccc1N=Nc1c(C)[nH]n(-c2ccccc2)c1=O | -5%
COCCCn1c(CCC(=O)O)ccc1-c1ccc(F)cc1 | 6%
Cc1cc(C(=O)CCC(=O)N(C)CC(=O)Nc2ccc(OC(F)(F)F)cc2)c(C)s1 | -8%
Cc1c(NC(=S)N/N=C/c2ccc(Br)cc2)c(=O)n(-c2ccccc2)n1C | -3%
COc1cc(OC)cc(C(=O)NC2=NCCS2)c1 | 6%
COc1cc(OC)c2c(c1C(CCN1CCOCC1)c1ccc(N(C)C)cc1)OC(=O)CC2c1ccc(N(C)C)cc1 (stereo not drawn) | 2%&8%
Cc1ccc(OC(=S)Nc2ccc(F)cc2)cc1 | -4%
O=C(O)c1cccc(NS(=O)(=O)c2ccc(-c3ccc(S(=O)(=O)Nc4cccc(C(=O)O)c4)cc3)cc2)c1 | -15%
CC(C1=C(CCN(C)C)Cc2ccccc21)c1ccccn1 (stereo not drawn) | -15%
O=C(COC(=O)CCC1CCCC1)Nc1cc(S(=O)(=O)N2CCOCC2)ccc1Cl | -2%
COc1ccc(N2CCN(C(=O)CCS(=O)(=O)c3ccc4c(c3)NC(=O)C(C)S4)CC2)cc1 (stereo not drawn) | -8%
Cn1c(SCC(=O)Nc2ccc(NC(=O)c3ccccc3)cc2)nnc1-c1ccncc1 | -12%
COc1cccc(/C=N/NC(=O)CNC(=O)COc2cccc(C)c2)c1O | -18%
COC(=O)c1nc(NC(=O)c2ccccc2Cl)n[nH]1 | -16%
CC(C)c1ccc(/C=C2\NC(=S)N(Cc3cccnc3)C2=O)cc1 | 8%
Nc1nonc1-n1nnc(C(=O)N/N=C/c2cc(Br)ccc2O)c1CSC1=NCCS1 | 1%
CN1CN(C)C(c2ccncc2)=C1c1ccncc1 | -15%
COc1ccc(/C=C2\SC(=S)N(C(C)C(=O)NC3C=CS(=O)(=O)C3)C2=O)cc1 (stereo not drawn) | -20%
CCOC(=O)Cc1nnc(Nc2ccc(C)cc2)c2ccccc12 | -9%
O=C(Cc1ccc(F)cc1)N1CCN=C1SCc1ccc([N+](=O)[O-])cc1 | -21%
S=C(NCc1ccccc1)NCc1ccccn1 | 5%
Cc1cc(-n2c(SCc3ccccc3F)nc3n[nH]c(C)c3c2=N)ccc1Cl | -18%
COc1ccc(S(=O)Cc2ccc(C(=O)NCc3cccc(OC)c3)o2)cc1 (stereo not drawn) | 4%

Following part.
SMILES | VDR inh
Cc1nc2[nH]c(=S)n(C)c(=O)c2nc1C | -12%
COc1ccc2c(c1)OC1(C)CC2C(C(=O)c2ccccc2OC)C(=O)N1 (stereo not drawn) | -17%
COc1ccc(NC(=O)CSc2nc3ncccc3[nH]2)cc1OC | 10%
CCN(CC)C(=O)[C@H]1CC(CC(=O)NC(C)(C)C)C(=O)N2CCc3c([nH]c4ccccc34)[C@]12C (stereo partly drawn) | 5%
CSc1oc(-c2ccco2)nc1S(=O)(=O)c1ccc(F)cc1 | -1%
COc1ccc(CCNC(=O)c2ccc3c(c2)NC(=O)CS3)cc1OC | 19%
CC1CCN(CCCNC(=O)CN2C(=O)CSc3ccc(S(=O)(=O)N4CCC(C)CC4)cc32)CC1 | 9%&12%
Cc1cc(NS(=O)(=O)c2ccc(NS(=O)(=O)c3ccc(Br)cc3)cc2)no1 | -21%
CCCCCN=C(C)c1c(O)c2ccccc2oc1=O | 16%
Cc1cc2ccccc2n1-c1ccc(C(=O)N2CCC(C(=O)NCc3ccccc3Cl)CC2)s1 | 1%
CC1(C)CC(NC(=O)COc2ccc([N+](=O)[O-])cc2)CC(C)(C)N1 | 12%
CCC(C)(C)c1ccc(OC(=O)c2cccnc2Cl)cc1 | 1%
N#CC1(NC(=O)COc2ccc3oc4ccccc4c3c2)CCCCC1 | 3%
Cc1cc(Oc2nc3ccccn3c(=O)c2/C=C(\C#N)C(=O)NC2CCS(=O)(=O)C2)ccc1Cl (stereo not drawn) | 32µM*
O=C(CSc1nnc(CNc2ccc(Cl)cc2)n1Cc1ccccc1)NCc1ccco1 | -14%
COc1cc(OC)cc(-c2c(-c3cccs3)c3cc(-c4ccc5cc[nH]c5c4)ccc3n2C)c1 | 11%
CC1CCCN(C(=O)COc2ccc3c(c2)OCO3)C1 (stereo not drawn) | 1%
CCCCOc1ccc(Cl)cc1CSc1nncn1N | -7%
COCCCNC(c1ccccc1)c1ccncc1 (stereo not drawn) | -13%
COc1ccc(CCNCc2c(-c3ccccc3)n(C)c3ccccc23)cc1 | 3%
COc1cccc(Cn2c(=O)n(Cc3ccccc3)c(=O)c3c2c2cc(OC)ccc2n3C)c1 | 10%
CN(C)c1nc(-c2ccccc2)cc(C(F)(F)F)c1C#N | 6%
CC(=O)Nc1ccc(SCC(=O)OCC(=O)NC(=O)NCCC(C)C)cc1 | -5%
Cc1nc2c(-c3ccc(F)cc3)c(C)nn2c(C)c1CCC(=O)N1CCOCC1 | -10%
CSc1ccccc1NC(=O)CSCc1ccc(Br)cc1 | 0%
CCOC(=O)c1ncn2c1C(=O)OC2(C)C | -14%
CCc1ccc(OCc2nc(-c3ccc(OC)c(OC)c3)no2)c(Br)c1 | -16%
COc1ccc(C2C(C(=O)Nc3ccc(C)cc3C)=C(C)Nc3nc(SCc4cccc(C)c4)nn32)c(OC)c1 (stereo not drawn) | -8%
CC(C)CNC(=O)CCc1nc(-c2ccccc2)no1 | -8%
CCc1cc2cccc(C)c2nc1SCC(=O)NC1CCCC1 | 13%
CCOc1ccc(/C=N/NC(=O)NC23CC4CC(CC(C4)C2)C3)cc1O | -11%
N/C(=N\OC(=O)/C=C/c1ccccc1)c1cccnc1 | 3%
NC(=O)C(c1ccc(F)cc1)c1ccc(C(=O)c2ccccc2)cc1 (stereo not drawn) | 14%
CC(C)(C)c1nc(N)nc(=O)[nH]1 | -9%
CC(Oc1ccc2c(-c3ccccc3)cc(=O)oc2c1)C(=O)NC(Cc1c[nH]c2ccc(O)cc12)C(=O)O (stereo not drawn) | -5%
CC(=O)NCCNc1nc(-c2ccccc2C)nc2ccccc12 | -2%
Cc1cc(C(=O)CN2C(=O)c3ccccc3C2=O)c(C)n1C1CC1 | -7%
Cc1cccc(NC(=O)c2cccc(S(=O)(=O)N3CCc4ccccc4C3)c2)n1 | -10%
CCOC(=O)c1[nH]c(C)c(CCC(=O)Nc2cc(Cl)c(OC)cc2OC)c1C | -2%
COc1ccccc1N1CCN(CCCNC(=O)C2CCCN(c3ncnc4c3nc3n4CCCCC3)C2)CC1 (stereo not drawn) | -8%
Cc1c(NC2=CC(=O)CC(C)(C)C2)c(=O)n(-c2ccccc2)n1C | -4%
Cc1cc([N+](=O)[O-])cc2c1-c1ncccc1C2=Nc1ccccc1 | -8%
Cc1ccc(NC(=O)c2c(NC(=O)c3ccco3)sc3c2CCC(C(C)(C)C)C3)c(C)c1 (stereo not drawn) | -5%
O=C(Nc1ccn(CCCNCc2ccccn2)c(=O)n1)OCc1ccccc1 | -7%
O=C(O)Cn1cc(C(=O)c2ccco2)c2ccccc21 | 15%
Cc1ccc(NC(=O)CSc2nc(=O)n(CCN(C)C)c3c2CCCC3)c(C)c1 | 1%
Cc1ccc(S(=O)(=O)N2CCN(c3ncnc4c3cnn4-c3ccccc3)CC2)cc1 | 6%
COc1ccc(CCNC(=O)c2cnn3ccccc23)c(OC)c1OC | -10%
c1ccc(-c2cc(-c3nnc4n3N=C(c3ccc5ccccc5c3)CS4)[nH]n2)cc1 | 0%
CCOc1ccccc1C(=O)NCC(=O)O | -29%
CN(C(=O)c1ccc(NC(=O)Cc2cccc(NC(=O)C3CCCN(C(=O)C4CCC4)C3)c2)cc1)C1CC1 (stereo not drawn) | -13%
O=C(COC(=O)C1CCC1)Nc1ccccc1Sc1ccccc1 | -14%
CCn1c(CNc2ccccc2Cl)nnc1SCCN1CCCCC1 | -2%
COc1ccc(CCNC(=O)CCNC(=O)c2ccc([N+](=O)[O-])cc2)cc1 | -6%
CC(=O)c1cccc(NC(=O)c2nc(-c3ccc(C)cc3)n3c2CCCCC3)c1 | 4%
Cc1ccc(NC(=S)N2CCN(Cc3ccccc3)CC2)cc1 | -5%
CC1CCN(c2nc3c(S(=O)(=O)c4ccc(Cl)cc4)nnn3c3ccsc23)CC1 | -3%

Not all compounds are listed; count on the stated rates, not on these rows.
